Screening data: PubChem BioAssay, Southern Research Institute
Mtb growth: Confirmatory growth inhibition assay against Mycobacterium tuberculosis H37Rv, potency (AID 1949); most inactive calls were filed without a number and no value below 0 was filed; one-dose inhibition, % at 10 µg/mL; IC50 in µg/mL for titrated hits; 1.6% of 100,000 active;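 active = confirmed in a dose series; inconclusive = about 50% or more but not retested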;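 note: bacteria grown 7 days with compound before Alamar blue readout; 0% = untreated bacteria and 100% = reference antibiotic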
Active calls of the source: *; i = inactive; u = inconclusive. This is a subset; count on the stated rates, not on these rows.

smiles | Mtb growth
CC(Oc1cccc(Cl)c1)C(=O)Nc1nc2ccc(S(C)(=O)=O)cc2s1 (stereo unspecified) | i
Cc1ccc(-c2cc(C(=O)NC3CCCCC3)c3ccccc3n2)o1 | i
COc1ccc(CCNC(=O)Cn2cnc3sc(C)c(C)c3c2=O)cc1OC | i
CCn1c(CNC(=O)c2ccc(Cl)cc2)nnc1SCC(=O)Nc1ccccc1F | i
Cn1ccc(NC(=O)Nc2cccc([N+](=O)[O-])c2)n1 | i
O=C(NC1CCCCCC1)C1CCN(C(=O)Cc2ccccc2)CC1 | 3%
CC(C)Oc1c(Cl)cc(CNC(C)(C)CO)cc1Cl | i
COc1ccc(Cl)cc1NC(=O)c1nn2c(C(F)(F)F)cc(-c3ccccc3)nc2c1Cl | i
CN(CCCCOc1ccc(F)cc1)Cc1ccccc1 | i
Clc1ccc(-c2nnc(SCc3ccccc3)o2)cc1 | i
CN(C)S(=O)(=O)N(CC(N)=O)c1ccccc1 | i
CCOc1ccccc1NC(=S)Nc1cc(C)ccc1OC(F)F | i
COC(=O)c1c(NC(=O)C23CCC(C)(C(=O)C2=O)C3(C)C)sc2c1CCCC2 (stereo unspecified) | i
CCC1(C)Cc2c(C#N)c(N)n(N)c(=S)c2CO1 (stereo unspecified) | i
Cn1c(=O)c2c(ncn2CC(=O)Nc2ccc(F)cc2F)n(C)c1=O | 3%
Cc1cc(C)c2c(=O)cc(C(F)(F)F)oc2n1 | i
Nn1c(SCc2c(Cl)cccc2Cl)nnc1-c1cccnc1 | i
Cc1ccc(NC(=S)NCCc2ccccc2)c([N+](=O)[O-])c1 | 1%
CCOC(=O)c1ccc(COC(=O)c2ccc(NC(=O)c3ccccc3)cc2)cc1 | i
CCOC(=O)CC(N)c1ccc(OC)c2ccccc12 (stereo unspecified) | i
COc1ccc(NC(=O)Cn2cc(C(=O)c3cccs3)c3ccccc32)cc1 | i
CCOC(=O)N1CCN(S(=O)(=O)c2ccc(OCC(=O)OC)c(Cl)c2)CC1 | i
COc1ccccc1N(CC(=O)Nc1ccc(C(C)C)cc1)S(=O)(=O)c1ccc(C)cc1 | 4%
COc1ccccc1N1CCN(C(=O)c2cc(-c3ccc(C)s3)nc3ccccc23)CC1 | u
CC(=O)Nc1ccccc1Nc1ccccc1 | i
O=[N+]([O-])c1ccc(N2CCN(S(=O)(=O)c3ccc(F)cc3)CC2)cc1NCc1cccnc1 | i
CCc1ccc(C=NNC(=O)C(C)Oc2ccc(C)cc2)cc1 (stereo unspecified) | i
COc1ccccc1C(=S)N1CCN(C)CC1 | i
COC(=O)C1=CN(c2cccc(C(F)(F)F)c2)C=C(C(=O)OC)C1c1cccs1 | 0%
CC(C)c1ccc(/C=C2\C(=O)NC(=O)N(c3ccc4c(c3)OCO4)C2=O)cc1 | i
COc1ccc(NC(=S)N2CCN(c3cccc(C)c3C)CC2)cc1 | i
COc1ccccc1C(=O)NNC(=S)NC(=O)c1cccs1 | 0.15µg/mL*
Cc1cc(NC(=O)c2ccccc2[N+](=O)[O-])ccc1Br | i
CCCOc1cccc(C(=O)NC(=S)Nc2nc(-c3cccc([N+](=O)[O-])c3)cs2)c1 | i
Cc1nnc(SCc2ccc(F)cc2Cl)s1 | 3%
Cc1cccnc1NCC(O)COc1ccccc1 (stereo unspecified) | i
O=C(CSc1nnc(-c2ccncc2)n1-c1ccc(F)cc1)Nc1ccc(Cl)cc1 | i
COc1ccc(-c2nc3nc(C)cc(C)n3n2)cc1 | i
COC(=O)Cn1c(=O)n(C)c(=O)c2ccccc21 | i
OCc1cc(Cl)c(OCc2ccc(Cl)cc2)c(Cl)c1 | 4%
COc1cc(OC)c(NC(=O)c2csc(C)c2)cc1Cl | 12%
COc1ccc(NC(=O)C2C3CCC(C3=C(C)C)C2C(=O)O)cc1 (stereo unspecified) | i
O=C(COc1cc(=O)n2c(n1)SCCC2)c1ccccc1 | i
Cn1ncc2c1ncn1nc(COc3ccc(Cl)cc3)nc21 | i
Cc1ccc(CCS(=O)(=O)c2ccc(C(C)(C)C)cc2)cn1 | 2%
COc1ccc(C2CC(c3cc(Br)ccc3O)=NN2)cc1OC (stereo unspecified) | 1%
COc1cccc(NC(=O)c2ccc(F)cc2C)c1 | 0%
CC(=O)NC(=S)NNC(=O)CCc1ccccc1 | i
CCOC(=O)COc1ccc(S(=O)(=O)N2CCc3ccccc3C2)cc1 | 0.64µg/mL*
CCCCn1c(=O)c2ccccc2c2ccccc2c1=O | i

4 entries already listed, ordered by molecular weight, rising.
smiles | Mtb growth
CCCCn1c(=O)c2ccccc2c2ccccc2c1=O | i
COc1ccc(NC(=S)N2CCN(c3cccc(C)c3C)CC2)cc1 | i
CC(C)c1ccc(/C=C2\C(=O)NC(=O)N(c3ccc4c(c3)OCO4)C2=O)cc1 | i
O=C(CSc1nnc(-c2ccncc2)n1-c1ccc(F)cc1)Nc1ccc(Cl)cc1 | i

(more compounds)
smiles,Mtb growth
Cc1ccccc1OCCCNCC1CCCO1 (stereo unspecified),i
CC(=O)c1cccc(NC(=O)CSc2nc3ccc(C)cc3[nH]2)c1,i
CCCCC(=O)Nc1cccc(NC(=O)c2cc(Br)ccc2OC)c1,1%
Cc1ccc(S(=O)(=O)Nc2ccc(C(=O)N3CCc4ccccc4C3)cc2)cc1,2%
O=C(Nc1ccc(F)cc1F)c1ccc(-c2ccccc2[N+](=O)[O-])o1,0%
Cc1sc2nc(SCC(=O)N3CCCC3)n(C3CCCCC3)c(=O)c2c1C,0%
CCc1ccc(S(=O)(=O)NC(C)c2ccc(Br)cc2)cc1 (stereo unspecified),16%
O=C(COc1ccc(Cl)cc1)OCc1cccc(Br)c1,i

Quoted at random: 3 compounds from above, in no set order.
smiles,Mtb growth
Cc1ccc(S(=O)(=O)Nc2ccc(C(=O)N3CCc4ccccc4C3)cc2)cc1,2%
COc1ccccc1C(=S)N1CCN(C)CC1,i
O=C(NC1CCCCCC1)C1CCN(C(=O)Cc2ccccc2)CC1,3%

(listing goes on)
smiles,Mtb growth
Cc1ccccc1NC(=S)NCCN(C)C,i
O=C1NN(c2ccc(Cl)c(Cl)c2)C(=O)/C1=C/c1cccc(OC(=O)c2cccs2)c1,i
CCc1c(C)c2ccc(OCC(=O)Nc3ccc(C(C)=O)cc3)cc2oc1=O,2%
COc1cc([N+](=O)[O-])ccc1NC(=O)c1ccc(C#N)cc1F,i
O=C(NCCc1nc2ccccc2[nH]1)c1cccs1,i
COc1ccc(Cl)cc1NC(=O)C1CCN(C(=O)c2ccc(F)cc2)CC1,4%
Oc1ccc(Br)cc1C1=NNC(c2ccccc2Cl)C1 (stereo unspecified),i
Cc1c(Cl)ccc(NC(=O)Cc2ccc(F)cc2)c1Cl,i
CN1C(=O)C2C(c3ccc(N(C)C)cc3)NN(Cc3ccccc3)C2C1=O (stereo unspecified),i
OCc1nnn(-c2ccc(Br)cc2)c1CO,0%
CCCN1CCC(NC(=S)Nc2ccc([N+](=O)[O-])cc2)CC1,1%
Cc1ccc(CNC(=O)C(=O)NCCCN(C)C)cc1,i
Cc1ccc(-c2csc(NC(=O)c3cccs3)n2)cc1,0%
CC(NC(=O)c1ccccc1Cl)c1nnc(SCc2ccc(Cl)cc2Cl)n1C (stereo unspecified),i
CCOC(=O)c1ccc(NC(=O)C(C)NS(=O)(=O)c2ccc(C)cc2)cc1 (stereo unspecified),i
CCOc1ccccc1Nc1nc(N)nc(CN(C)C2CCCCC2)n1,u
CC(C)NC(=S)N1CCN(C/C=C/c2ccccc2)CC1,i
COc1cc([N+](=O)[O-])ccc1NC(=O)C1CCCO1 (stereo unspecified),i
CNC(=O)c1ccc(I)cc1,i
Cc1ccc(C(=O)Nc2ccc(F)c(Cl)c2)cc1C,8%
COc1ccc(N(C(C)C(=O)Nc2ccc(F)cc2F)S(C)(=O)=O)cc1 (stereo unspecified),i
NC(=S)N1CCN=C1c1ccccc1,2%
Cc1cc(C)c(NS(=O)(=O)c2ccc(NC(=O)c3ccncc3)cc2)c(C)c1,1%
Cn1c(=O)n(Cc2ccccc2F)c2ccccc21,i
Clc1ccc(OCCCNCc2ccccc2)c2ccccc12,1.4µg/mL*
CC(=O)c1cccc(NC(=S)NCc2cccnc2)c1,i
CC(NC(=O)c1ccc(-c2ccccc2)cc1)C1CC2CCC1C2 (stereo unspecified),i
C#CCOc1c(Br)cc(/C=C/[N+](=O)[O-])cc1OC,38µg/mL*
CCOC(=O)c1cnc2ccc(Cl)cc2c1Nc1ccc(S(=O)(=O)Nc2ncccn2)cc1,i
Cc1ccc(NS(=O)(=O)c2ccc([N+](=O)[O-])cc2)c(C)c1,2%
O=C(Nc1ccccc1)C1CCN(C(=O)c2ccc(Br)cc2)CC1,i
CC(=O)Nc1ccc(C(=O)CSc2n[nH]c(C)n2)cc1,i
CNS(=O)(=O)c1c(C)c(C)cc(C)c1C,i
CC(C)NC(=O)c1ccccc1NC(=O)c1cccc(NC(=O)C(C)C)c1,i
O=C(Nc1cc(Cl)cc(Cl)c1)C1CC(=O)N(C2CCCCC2)C1 (stereo unspecified),i
CS(=O)(=O)Nc1cccc(C2=NN(C(=O)c3ccco3)C(c3cccs3)C2)c1 (stereo unspecified),i
O=C(Cc1c(F)cccc1Cl)Nc1nnc(-c2ccncc2)s1,5%
CC(=O)N1CCN(C(=S)c2ccc(Cl)cc2)CC1,i
C(=NN1CCN(C2c3ccccc3-c3ccccc32)CC1)c1ccncc1,11µg/mL*
CC1CCN(CCOCCOc2cccc(Br)c2)CC1,i
COc1ccc(CN2CCN(Cc3ccncc3)CC2)c(OC)c1OC,i
C=CCc1cc(C)ccc1OCCCCn1ccnc1,1.4µg/mL*
O=C(CSc1ccccc1)c1ccc([N+](=O)[O-])cc1,9.8µg/mL*
O=C(c1ccc(Br)s1)N1CCc2ccccc2C1,i
Cc1ccc(N(CC(=O)Nc2c(C)cc(C)cc2C)S(=O)(=O)c2ccccc2)cc1,1%
COc1ccc(C(=O)N(Cc2nc(-c3ccc(Cl)cc3)no2)C(C)C)cc1OC,i
COc1ccc(C(=O)Nc2c(C(C)C)cccc2C(C)C)cc1,3%
CN(c1ccc(C(=O)NC2CCCCC2)cc1)S(C)(=O)=O,i

Looked up above.
Mtb growth, Cc1ccc(N(CC(=O)Nc2c(C)cc(C)cc2C)S(=O)(=O)c2ccccc2)cc1 is entered as 1%
Mtb growth, O=C(CSc1ccccc1)c1ccc([N+](=O)[O-])cc1 is entered as 9.8µg/mL*
Mtb growth, COc1ccc(C(=O)Nc2c(C(C)C)cccc2C(C)C)cc1 is entered as 3%

(list continues)
smiles,Mtb growth
CCOC(=O)CCC(=O)Nc1ccc(-c2nc3ccc(C)cc3s2)cc1,i
CCOc1cc(C)ccc1OCc1nnc(SCC(=O)Nc2ccc(F)c(Cl)c2)n1CC,i
C=CCc1cc(C)ccc1OCCOCCNCCCOC,i
CC(Sc1nnc(N)s1)C(=O)Nc1ccc(Cl)cc1 (stereo unspecified),i
Cc1cc(OCCCCCCNCCO)cc(C)c1Cl,49%
O=C(NC1CCCC1)c1cccc(C(=O)NC2CCCC2)n1,5%
CS(=O)(=O)N(CC(=O)N1CCOCC1)C1CCCCC1,i
COC(=O)c1ccc(NC(=O)CSc2nnc(C)n2-c2ccccc2)cc1,i
CC(NC(=O)c1ccc(Br)s1)c1ccncc1 (stereo unspecified),i
CCN1C(=O)CS/C1=C(\C#N)S(=O)(=O)c1ccccc1,3%
CC1CCc2c(sc3ncnc(Nc4ccc(F)c(Cl)c4)c23)C1 (stereo unspecified),i
CC(=O)c1ccccc1OC(=O)COc1ccc(Cl)cc1Cl,2%
CCc1cccc(OCC(=O)Nc2ccc(-c3nc4ccccc4o3)cc2)c1,i
COc1cc(C(=O)Nc2cccc(C(=O)O)c2)ccc1OC(C)=O,5%
Cc1cccc(N/C(N)=N/c2nc3c(c(=O)[nH]2)CCCC3)c1,6%
CCCOc1cccc(C(=O)Nc2nc3c(Cl)cccc3s2)c1,14%
COCCSc1ccccc1C(=O)N1CCCC(C)C1 (stereo unspecified),i
Cc1cc(C(F)(F)F)nn1CC(=O)N1CCOCC1,i
Cc1ccc(C)c(-n2nnnc2SCc2ccccc2Br)c1,i
C=CCNC(=S)N(Cc1cccs1)C1CCS(=O)(=O)C1 (stereo unspecified),i
Cc1nc(SCc2cccc(CSc3n[nH]c(C)n3)c2)n[nH]1,i
COc1cc(C2CC(=O)n3nc(-c4ccc(Cl)cc4)nc3S2)cc(OC)c1OC (stereo unspecified),i
COc1ccc(NC(=S)NC(=O)c2ccc(OC)c(OC)c2)c(OC)c1,i
O=C(CC1NC2CCCCC2NC1=O)Nc1cccc(C(F)(F)F)c1 (stereo unspecified),1%
Cn1c(SCc2ccccc2Cl)nnc1-c1ccncc1,i
Cc1c(NC(=O)c2cc(-c3ccccc3)on2)c(=O)n(-c2ccccc2)n1C,i
Nc1cccc(Oc2ccc3c(c2)C(=O)NC3=O)c1,i
Cc1c(C#N)c2ccccc2n1CC(=O)NCc1ccccc1,i
CC(C)c1nc(=S)c2ccccc2[nH]1,3%
CN(CC(=O)N1CCN(c2ccccc2)CC1)S(=O)(=O)c1ccc(Br)cc1,4%
CCc1cccc(C)c1NC(=O)COc1ccc(Cl)cc1Cl,0%
O=[N+]([O-])c1cccc(NC(=S)Nc2ccccc2Sc2ccccc2)c1,0%
COc1cc(C(=S)N2CCN(C)CC2)ccc1OCc1ccc(Br)cc1,i
COc1cc(C(=O)O)cc(Cl)c1OC(C)C,i
COc1ccc(Cl)cc1NC(=O)CSc1nnc(-c2cc3cc(Br)ccc3o2)n1C,i
O=C(Nc1ccc2c(c1)OCCO2)C12CC3CC(CC(C3)C1)C2,i
Cc1cc2c(cc1C)C(c1ccccc1C(F)(F)F)CC(=O)N2 (stereo unspecified),i
O=C(CSc1nc2ccccc2o1)N1CCN(c2ccccc2)CC1,i
Cc1cc(NC(=S)NC2CCCCC2)nn1Cc1ccc(Cl)cc1,1%
